YopH inh: YopH tyrosine phosphatase inhibitors, primary screen, biochemical, fluorescence Ex485/Em525. 140,000 tested, 0.16% active. AID 898, 2007. inhibition, %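 (about 10 µM by stock and volumes)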. YopH tyrosine phosphatase [Yersinia enterocolitica];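 active = inhibition of 50% or more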;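 also: controls were vehicle for no effect and minimum signal wells for full effect; inactives centre near -20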
Arbovirus anti: antivirals against arbovirus infection, primary screen, cell-based, full library, 10K replicate subset; inhibition, % at 10 µM; arbovirus infection cell-based antiviral screen; 200,000 tested, 0.37% active;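 active = inhibition from about 30%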;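 also: bluetongue infection of BSR cells; cell survival read as ATP light after 72 h; 0% = infected wells without compound and 100% = uninfected wells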
RecA splice inh: Mtb RecA intein splicing inhibitors, primary screen, biochemical, fluorescence, HTS | 290,000 tested, 0.75% active | inhibition, %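 (about 9 µM by stock and volumes)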 | cell-free RecA intein splicing | Protein RecA (Mycobacterium tuberculosis (strain ATCC 25618 / H37Rv)), P9WHJ3; in the data active = inhibition above about 30%;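 also: 0% = vehicle wells and 100% = reference inhibitor control wells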
Target sequence (P9WHJ3 whole entry, looked up, canonical isoform): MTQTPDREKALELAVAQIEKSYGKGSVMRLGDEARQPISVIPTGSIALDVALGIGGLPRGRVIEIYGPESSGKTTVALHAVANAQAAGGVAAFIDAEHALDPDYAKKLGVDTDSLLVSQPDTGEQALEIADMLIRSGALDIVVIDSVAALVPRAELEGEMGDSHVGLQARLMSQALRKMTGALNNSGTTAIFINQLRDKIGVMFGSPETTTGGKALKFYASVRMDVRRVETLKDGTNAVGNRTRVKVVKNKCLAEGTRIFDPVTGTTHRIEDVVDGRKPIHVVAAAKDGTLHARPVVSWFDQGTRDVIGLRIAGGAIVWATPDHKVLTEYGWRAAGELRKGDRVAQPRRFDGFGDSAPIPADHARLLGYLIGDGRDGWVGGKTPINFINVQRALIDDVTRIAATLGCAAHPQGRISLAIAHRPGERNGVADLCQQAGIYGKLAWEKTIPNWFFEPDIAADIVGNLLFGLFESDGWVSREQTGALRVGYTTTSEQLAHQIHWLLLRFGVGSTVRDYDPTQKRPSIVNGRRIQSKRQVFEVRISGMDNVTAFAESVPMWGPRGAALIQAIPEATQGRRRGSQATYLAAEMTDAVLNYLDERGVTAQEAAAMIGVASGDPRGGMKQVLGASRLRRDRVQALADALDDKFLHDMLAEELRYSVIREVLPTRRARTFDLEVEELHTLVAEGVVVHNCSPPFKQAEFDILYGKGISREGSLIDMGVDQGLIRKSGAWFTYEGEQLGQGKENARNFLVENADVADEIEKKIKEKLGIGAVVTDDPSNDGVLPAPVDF
Mtb bLac sens: beta-lactam sensitization of Mtb H37Rv, H37Rv; M. tuberculosis H37Rv growth with meropenem, percent inhibition; hits of this screen are not shown here; inhibition, % at 25 µM; 330,000 tested, 0.27% active;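 active = about 74% or more and at least 40 points above the plate without the antibiotic, then above 30% in a dose series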;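 also: growth measured after seven days incubation then overnight dye step; 0% = bacteria only wells and 100% = bacteria with antibiotic; twin plates without the antibiotic show which effects depend on it; some results filed as inactive read as strong as hits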
Mtb growth: M. tuberculosis H37Rv growth inhibitors, H37Rv strain (AID 1626) | 220,000 tested, 0.95% active | M. tuberculosis H37Rv growth inhibition; higher % means a stronger effect | inhibition, % at 10 µM; hits with a dose series show IC50 in µM;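 active = confirmed in a dose series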;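 also: bacteria incubated seven days before Alamar blue readout; 0% = bacteria only wells and 100% = bacteria with antibiotic wells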
Arbovirus anti repeat: recorded beside Arbovirus anti, whose call it bears; inhibition, %; measured here: 10K subset replicate screen; many hits read low in the repeat;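 first of two repeat runs on a subset; 0% = infected and 100% = uninfected wells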
Numbers without * were called inactive; . = not tested or not shown.

SMILES	YopH inh	Arbovirus anti	RecA splice inh	Mtb bLac sens	Mtb growth	others
CC(C)(C)c1ccc(CN(Cc2ccccc2)C(c2ccccn2)c2nnnn2C(C)(C)C)cc1 (stereo unspecified)	9	-6	2.1	0	22%
O=C(NCCc1ccccc1)c1nc(-c2cccs2)no1	.	-4	2.7	8	3%
COc1ccc(-c2cc(C(F)(F)F)nc(N3CCCCCC3)n2)cc1	-51	-16	13	4	10%
COc1ccc(OC)c(-n2c(=S)[nH]c3cc(C(=O)NCCCN4CCCC4=O)ccc3c2=O)c1	-22	-1	1.6	-1	.
CCN(CC)C(=O)c1cn(CC)c(=O)c2cc(OC)c(OC)cc12	-16	6	-3.1	-1	-3%	Arbovirus anti repeat=7
C/C(=N\N1CCN(c2ccc(Cl)cc2)CC1)c1ccco1	-8	-7	-2.1	-4	-8%
O=C(COC(=O)C1CC2C=CC1C2)Nc1ccccc1 (stereo unspecified)	-28	-6	4.3	3	0%
O=C(Nc1cccnc1)c1ccccc1F	-47	5	-1.3	-2	-4%	Arbovirus anti repeat=7
c1ccc(-c2nnc(SCc3cn4ccsc4n3)o2)cc1	-37	3	-1.0	-9	9%
O=c1oc(-c2cccs2)nc2sc3c(c12)CCCC3	-13	34*	-3.3	.	15%
CC(C)CCNS(=O)(=O)c1ccc(-c2ccc(S(=O)(=O)NCCC(C)C)cc2)cc1	-10	-3	-2.4	7	3%
CCOC(=O)c1c(CCl)nc2ccccc2c1C	.	1	.	88	4%
COc1cccc(NC(=S)NC(=O)Cc2ccc(Cl)cc2)c1	.	.	6.0	5	.
Cn1c(=O)c2c(nc(CN3CCc4ccccc4C3)n2Cc2cccc(Cl)c2)n(C)c1=O	15	-10	14	2	31%	Arbovirus anti repeat=5
CC(C)(O)c1[nH]c2cc(F)ccc2c1C(C)(C)O	.	.	18	11	.
Cc1ccc(/C=N/NC(=O)CCCOc2ccc(Cl)cc2Cl)cc1[N+](=O)[O-]	-18	-3	-2.7	11	-5%
COc1ccc2[nH]cc(CCNC(=O)c3ccc4ccccc4n3)c2c1	.	.	5.2	10	.
COc1ccc2oc(C(=O)NC3(C)CCS(=O)(=O)C3)c(C)c2c1 (stereo unspecified)	.	.	-3.8	-10	.
CCOc1ccc(Nc2cc(=O)[nH]c(=O)[nH]2)cc1	.	.	-1.5	3	.
O=C(CNC(=O)c1ccco1)N=Nc1c(O)[nH]c2ccc([N+](=O)[O-])cc12	.	.	17	-3	.
CCOCc1cc(CN2CCC(CCC(=O)NC3CC3)CC2)ccc1OC	.	.	-1.2	5	.
O=C(Nc1ccncc1)c1ccc2c(c1)C(=O)N(C1CCCCC1)C2=O	-2	-3	1.5	53	44%
CCCNC(=O)Cc1c(C)n(C(=O)c2ccc(Cl)cc2)c2ccc(OC)cc12	.	.	1.3	-8	.
Cc1cc(=O)oc(C)c1C(=O)NCCN1CCOCC1	-29	6	-1.3	8	-4%
CCOC(=O)c1sc2nc(CSc3ccccc3Cl)[nH]c(=O)c2c1C	.	-13	-1.5	-4	5%

Retrieved one by one from the entries so far, 7 records:
SMILES	YopH inh	Arbovirus anti	RecA splice inh	Mtb bLac sens	Mtb growth	others
COc1ccc(OC)c(-n2c(=S)[nH]c3cc(C(=O)NCCCN4CCCC4=O)ccc3c2=O)c1	-22	-1	1.6	-1	.
O=C(Nc1cccnc1)c1ccccc1F	-47	5	-1.3	-2	-4%	Arbovirus anti repeat=7
Cn1c(=O)c2c(nc(CN3CCc4ccccc4C3)n2Cc2cccc(Cl)c2)n(C)c1=O	15	-10	14	2	31%	Arbovirus anti repeat=5
O=C(NCCc1ccccc1)c1nc(-c2cccs2)no1	.	-4	2.7	8	3%
c1ccc(-c2nnc(SCc3cn4ccsc4n3)o2)cc1	-37	3	-1.0	-9	9%
C/C(=N\N1CCN(c2ccc(Cl)cc2)CC1)c1ccco1	-8	-7	-2.1	-4	-8%
O=C(COC(=O)C1CC2C=CC1C2)Nc1ccccc1 (stereo unspecified)	-28	-6	4.3	3	0%

(cont.)
SMILES	YopH inh	Arbovirus anti	RecA splice inh	Mtb bLac sens	Mtb growth	others
O=C(NCc1nc2ccccc2[nH]1)C1=C[C@@H](C2CCCCC2)C[C@@H](OCc2ccc(CO)cc2)O1	.	12	3.4	16	6%
Cc1ccc(C)c(OC2=NS(=O)(=O)c3ccccc32)c1	.	1	1.6	-7	-1%
COc1cc(Cl)cc(C(c2c(C(=O)O)[nH]c3ccccc23)c2c(C(=O)O)[nH]c3ccccc23)c1O	.	.	0.1	3	.
COc1ccccc1NC(=O)Cn1c(CN2CCCCC2)nc2ccccc2c1=O	-25	2	1.1	2	2%
Cc1ccc2nc(Nc3ccc(C)c(Cl)c3)c3nncn3c2c1	.	.	2.4	7	.
Nc1ccc(Oc2ccc3c(c2)C(=O)N(CC2CCCO2)C3=O)cc1 (stereo unspecified)	.	.	.	0	-5%
COc1ccnc(N2CCN(c3ccccc3)CC2)c1C#N	-49	-6	2.9	0	7%
CCc1c(C)nc(N)nc1Cl	.	.	-17	5	-1%
COC(=O)c1cccc(NC(=O)c2ccccc2)c1	.	.	-0.2	-3	-1%
CSc1ccc(CN(C)CC(=O)Nc2c(F)cccc2F)cc1	.	19	-0.4	-9	6%
COc1ccccc1NC(=O)N1CCCC1C(=O)NCc1ccc(F)cc1 (stereo unspecified)	-13	-2	-0.4	3	-7%
C/C(=N\NC(=S)NCc1ccccc1)c1ccc2ccccc2c1OC(F)F	.	-3	13	-3	3%
CC(=O)c1cc(CN2CCN(C3CCCCC3)C(CCO)C2)cs1 (stereo unspecified)	.	-6	0.8	-1	-11%
Nn1c(Cc2cccc3ccccc23)nnc1SCc1ccccc1Cl	-28	7	0.1	4	9%
CCc1cc(=O)[nH]c(SCC(=O)N2CCCC2)n1	.	.	-2.0	-5	.
N#CC1(Cc2ccc(Cl)cc2)c2ccccc2C=CN1C(=O)c1ccccc1 (stereo unspecified)	-12	20	15	-4	-11%
COc1ccc([C@H]2[C@H](C(=O)C(C)(C)C)N3N=Cc4ccccc4C3C23C(=O)OC(C)(C)OC3=O)cc1 (stereo partly specified)	-11	-1	-0.7	0	-1%
Cc1ccc(S(=O)(=O)N(CC(=O)O)Cc2ccco2)cc1	.	.	1.6	2	-12%
CCc1ccc(NS(=O)(=O)c2cc3c(cc2C)n(C)c(=O)c(=O)n3C)cc1	.	.	1.4	3	.
Clc1ccc(CSC2=NCCCN2)cc1Cl	-8	-15	-2.1	0	-9%
CCCNc1c(NS(=O)(=O)c2cccs2)c(=O)oc2ccccc12	.	.	0.1	-5	.
Cc1cc(C(=O)OCC(=O)N(CC(C)C)c2c(N)n(Cc3ccccc3)c(=O)[nH]c2=O)c(C)o1	.	.	-0.6	-4	.
CC(C)(C)c1ccc(C(=O)N2CCC(C(=O)NCCC3=CCCCC3)CC2)cc1	-9	8	6.7	-5	-4%
O=C(CCn1c(=O)sc2ccccc21)NCCCn1ccnc1	-36	30*	0.5	3	-8%
COc1cccc(CNC(=O)CN(C)S(=O)(=O)c2ccc3c(c2)c(=O)n(C)c(=O)n3C)c1	.	.	1.3	-2	.
Later entries.
SMILES	YopH inh	Arbovirus anti	RecA splice inh	Mtb bLac sens	Mtb growth	others
O=C(O)C(Nc1nc(C(F)(F)F)nc2ccccc12)c1ccccc1 (stereo unspecified)	.	.	0.2	0	.
Cc1c(C(=O)OCC(=O)N2c3ccccc3CC2C)oc2ccccc12 (stereo unspecified)	-42	0	-1.0	5	.
COCCCNc1oc(-c2ccccc2Cl)nc1C#N	.	2	-1.1	2	3%
C=C(C)CSc1nnc2n(N)c(=O)c3ccccc3n12	-15	5	4.1	9	-10%
COc1ccc2nc(Cl)cc(Cl)c2c1	.	.	-2.2	-9	0%
COc1ccc(S(=O)(=O)N(CC(=O)NCc2ccncc2)c2cc(C)cc(C)c2)cc1OC	.	.	-2.7	-11	.
CCN(CC(=O)NC1CCS(=O)(=O)C1)S(=O)(=O)c1ccccc1 (stereo unspecified)	-27	1	2.0	1	0%
Cc1cc(=O)oc2cc(OCC3CC(c4ccccc4)=NO3)ccc12 (stereo unspecified)	-8	-4	-0.1	2	9%
Cc1cc(NS(=O)(=O)c2ccc(NC(=O)c3cccnc3)cc2)nc(C)n1	.	.	-1.1	-2	.
COC(=O)C1C2C=CC(C3CC23)C1C(=O)OCC(=O)c1ccc(OC)cc1 (stereo unspecified)	-1	15	.	11	1%
CC(C)C[C@H](NC(=O)[C@@H]1Cc2c([nH]c3ccccc23)C2c3ccccc3C(=O)N21)C(=O)NCC1CCCO1 (stereo partly specified)	.	.	0.5	-6	.
COc1ccccc1-n1cnc2cc(C(=O)NC3CCCC3)ccc21	-18	-4	-2.0	29	-3%
O=C(NC1CCCC1)c1ccc(CS(=O)(=O)Cc2ccccc2F)o1	.	.	-4.3	-3	.
COc1ccc(NC(=O)C(c2cc3c(cc2[N+](=O)[O-])OCO3)N(C)C)cc1 (stereo unspecified)	-12	-5	-0.5	3	-4%
COc1ccccc1NC(=O)CC(=O)CSc1nnc(-c2ccc(C)cc2)n1-c1ccccc1	-26	5	13	-3	-7%
CC(C)(C)C(=O)N(Cc1nc2ccccc2c(=O)[nH]1)Cc1cccs1	-16	3	.	7	8%
Cc1ccc(-c2noc(CCC(=O)N3CCCC3)n2)cc1	-41	4	0.0	-5	0%
C=CCn1c(SCC(=O)NC(=O)NCc2ccco2)nc2sc(C)c(C)c2c1=O	-16	2	-0.7	-1	-4%
Cc1ccc(-c2noc(CN3CCOCC3)n2)cc1	-22	4	-0.4	-3	-9%
CC1CCCN(C(=O)C2c3ccccc3C(=O)N3CCc4ccccc4C23)C1 (stereo unspecified)	-12	6	-2.4	-7	-7%
CC(=O)c1ccc(OCC(=O)NC2CCS(=O)(=O)C2)cc1 (stereo unspecified)	-39	4	-2.3	-2	-6%
COc1ccc(NC(=O)CCCN(C)S(=O)(=O)c2ccc(C)cc2)cc1	-30	-4	-1.1	-6	-5%
COc1ccc(S(=O)(=O)N(CC(=O)NCc2ccccn2)c2ccc(Cl)cc2)cc1	.	.	-1.1	-1	.
CCOCCn1c(=NC(=O)c2cc(Cl)sc2Cl)sc2cc(S(N)(=O)=O)ccc21	-23	-5	-3.8	-5	6%
O=C(Nc1ccc2c(c1)OCO2)Nc1ccccn1	.	-1	0.0	-8	-7%

4 entries from above, ordered by number of heavy atoms, low to high:
SMILES	YopH inh	Arbovirus anti	RecA splice inh	Mtb bLac sens	Mtb growth	others
O=C(O)C(Nc1nc(C(F)(F)F)nc2ccccc12)c1ccccc1 (stereo unspecified)	.	.	0.2	0	.
COc1ccc(NC(=O)C(c2cc3c(cc2[N+](=O)[O-])OCO3)N(C)C)cc1 (stereo unspecified)	-12	-5	-0.5	3	-4%
COc1ccc(S(=O)(=O)N(CC(=O)NCc2ccccn2)c2ccc(Cl)cc2)cc1	.	.	-1.1	-1	.
COc1ccc(S(=O)(=O)N(CC(=O)NCc2ccncc2)c2cc(C)cc(C)c2)cc1OC	.	.	-2.7	-11	.

Further structures.
SMILES	YopH inh	Arbovirus anti	RecA splice inh	Mtb bLac sens	Mtb growth	others
O=C(N/N=C/c1ccc(O)cc1)c1cc(-c2ccccc2)nc2ccccc12	.	.	4.1	5	.
O=C(CCc1ccccc1)Nc1ccc(NS(=O)(=O)c2ccccc2)cc1	.	.	7.1	-2	.
COCCCNC(=O)CN(c1cc(Cl)ccc1OC)S(C)(=O)=O	.	-1	-2.2	-1	-23%
O=S(=O)(c1ccc(Cl)cc1)n1cccn1	.	21	0.5	2	2%
CNC(=O)CC1C(=O)N(C)C(=S)N1NC(=O)c1ccccc1 (stereo unspecified)	.	.	0.3	-11	-3%
CCOC(=O)c1c(C)n(C)c2ccc(O)c(CN3CCCCC3)c12	-17	10	-7.3	-6	0%
CC(C)Oc1ccc(C(CC(=O)O)NC(=O)CSc2ncn[nH]2)cc1 (stereo unspecified)	-24	-1	-0.1	-10	-5%
Cc1cc(OCCCn2cnc3ccccc3c2=O)ccc1[N+](=O)[O-]	-28	3	-1.7	3	2%
CC(C)(C)c1ccc(-c2nnc(SCC(=O)O)n2N)cc1	-46	4	.	-25	3%
Cc1nn(Cc2noc(C(=O)NCC3CCCO3)n2)c(C)c1Br (stereo unspecified)	.	.	0.1	-4	.
CCN1CCN(c2cc(C)c3cc(NC(=O)c4ccc5c(c4)OCO5)ccc3n2)CC1	-11	-8	1.6	40	1%	Arbovirus anti repeat=-18
CN(C)c1ccc(-c2nnn(CC(=O)NCc3ccc4c(c3)OCO4)n2)cc1	.	-9	2.4	6	4%
CCCCCOC(=O)NCCOC(=O)Nc1ccc(C(=O)OCC)cc1	-22	7	-1.4	99	<0.2µM*
CCOCc1nnc(NC(=O)c2ccco2)s1	-24	-2	-3.6	6	0%
CC1=C(C(=O)OC(C)C)C(C)NC(=O)N1 (stereo unspecified)	-47	-2	-6.5	-12	-2%
O=C(CCc1ccccc1)NNC(=O)c1ccco1	-6	6	0.6	3	-5%

Source: PubChem

An excerpt. The share of hits here may be higher or lower than overall.
